Source: PubChem
RecA splice inh: blocks M. tuberculosis RecA intein splicing; cell-free RecA intein splicing, fluorescence; hit rate 0.75% among 290,000; P9WHJ3; inhibition, %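 (about 9 µM by stock and volumes)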; in the data active = inhibition above about 30%; inconclusive = no clear call, values can overlap the other calls;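 note: 0% = vehicle wells and 100% = reference inhibitor control wells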
Target sequence (P9WHJ3 whole entry, looked up, canonical isoform): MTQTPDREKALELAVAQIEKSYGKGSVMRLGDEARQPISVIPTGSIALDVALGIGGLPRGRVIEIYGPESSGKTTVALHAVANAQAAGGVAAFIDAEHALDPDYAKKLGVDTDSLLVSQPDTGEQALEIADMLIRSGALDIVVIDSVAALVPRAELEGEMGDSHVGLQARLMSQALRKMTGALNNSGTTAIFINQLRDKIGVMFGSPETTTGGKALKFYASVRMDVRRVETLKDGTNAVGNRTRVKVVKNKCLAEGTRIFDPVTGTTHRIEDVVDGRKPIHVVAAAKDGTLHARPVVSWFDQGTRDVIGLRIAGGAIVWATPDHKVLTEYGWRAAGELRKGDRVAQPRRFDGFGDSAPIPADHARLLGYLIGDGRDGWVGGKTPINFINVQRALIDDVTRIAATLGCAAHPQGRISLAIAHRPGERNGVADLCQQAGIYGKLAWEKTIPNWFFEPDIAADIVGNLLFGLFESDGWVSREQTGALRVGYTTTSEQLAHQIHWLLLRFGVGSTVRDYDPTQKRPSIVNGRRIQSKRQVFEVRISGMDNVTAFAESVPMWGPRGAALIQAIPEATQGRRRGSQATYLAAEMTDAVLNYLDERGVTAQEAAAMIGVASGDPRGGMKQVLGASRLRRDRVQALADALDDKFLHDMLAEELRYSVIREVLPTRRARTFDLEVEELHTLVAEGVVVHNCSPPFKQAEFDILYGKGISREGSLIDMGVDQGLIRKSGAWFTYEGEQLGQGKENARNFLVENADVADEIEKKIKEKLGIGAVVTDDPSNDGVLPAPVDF
YopH inh: YopH (Yersinia) phosphatase inhibition; hit rate 0.16% among 140,000; inhibition, %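 (about 10 µM by stock and volumes)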; fluorescence Ex485/Em525;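 active = inhibition of 50% or more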;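 note: controls were vehicle for no effect and minimum signal wells for full effect; inactives centre near -20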
Mtb bLac sens: beta-lactam sensitization of Mtb H37Rv; M. tuberculosis H37Rv growth with meropenem, percent inhibition; hits of this screen are not shown here; inhibition, % at 25 µM; hit rate 0.27% among 330,000; AID 434955;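 active = about 74% or more and at least 40 points above the plate without the antibiotic, then above 30% in a dose series; inconclusive = first-round hits that could not be retested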;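 note: growth measured after seven days incubation then overnight dye step; 0% = bacteria only wells and 100% = bacteria with antibiotic; twin plates without the antibiotic show which effects depend on it; some results filed as inactive read as strong as hits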
Mtb growth: M. tuberculosis H37Rv growth inhibitors, H37Rv strain (AID 1626). M. tuberculosis H37Rv growth inhibition; higher % means a stronger effect. one-dose inhibition, % at 10 µM; IC50 in µM for titrated hits. hit rate 0.95% among 220,000;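 active = confirmed in a dose series; inconclusive = inhibition above 80% but not taken into the dose series; inactive = below 80% or under 30% at every dose of the series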;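 note: bacteria incubated seven days before Alamar blue readout; 0% = bacteria only wells and 100% = bacteria with antibiotic wells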
Arbovirus anti: blocks arbovirus infection; arbovirus infection cell-based antiviral screen; inhibition, % at 10 µM; hit rate 0.37% among 200,000; AID 1251;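 active = inhibition from about 30%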;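 note: bluetongue infection of BSR cells; cell survival read as ATP light after 72 h; 0% = infected wells without compound and 100% = uninfected wells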
Starred values were filed as active, the others as inactive; & = joins results of further samples. This is a subset, so the mix of outcomes need not match the whole.

`Cc1cc(OCCN2CCCC2)ccc1[N+](=O)[O-]` gave RecA splice inh -0.3, YopH inh -2, Mtb bLac sens 1, Mtb growth 0% and Arbovirus anti -1.
For COc1cccc(NC(=S)NC(=O)c2c(Cl)c(C)nn2C)c1 the results were RecA splice inh -0.6, YopH inh -32, Mtb bLac sens 15, Mtb growth 1% and Arbovirus anti -3.
For O=C(NCC1CC1)C1(S(=O)(=O)c2ccccc2)CC=CC1 the results were RecA splice inh -1.7 and Mtb bLac sens -4.
`CCOc1ccc(S(=O)(=O)n2c([N+](=O)[O-])cnc2C)c(C)c1C` gave RecA splice inh -0.9 and Mtb bLac sens 0.
For COCCNC(=O)c1sc2nc(-c3ccccc3)cn2c1C the results were RecA splice inh -1.2, YopH inh -30, Mtb bLac sens -15 and Arbovirus anti 3.
For O=C(c1ccc(-c2ccccc2)cc1)c1ccccc1C(=O)N1CCOCC1 the results were RecA splice inh 3.2, YopH inh -7, Mtb growth -4% and Arbovirus anti -6.
Cc1cccc(-c2c3c(=O)n(C)c(=O)n(C)c3cn2C(C)C)c1 was read as RecA splice inh 1.4, YopH inh -39, Mtb bLac sens -2, Mtb growth 2% and Arbovirus anti 2.
For CCC(C)(C)n1nnnc1C(c1ccc(C)cc1)N1CCN(Cc2ccc3c(c2)OCO3)CC1 (centres undefined) the results were RecA splice inh 3.8, YopH inh -12, Mtb bLac sens 86, Mtb growth 3% and Arbovirus anti -2.
O=C1c2c(O)cc(O)cc2O[C@H](c2ccc(O)c(O)c2)[C@H]1O was read as RecA splice inh -8.0, Mtb bLac sens 1, Mtb growth -13%&-2% and Arbovirus anti -1.
For O=c1oc(-c2ccccc2Br)nc2ccccc12 the results were RecA splice inh 29 and Mtb bLac sens 61.
Screening Cc1cc([N+](=O)[O-])ccc1NC1CCCC1 returned RecA splice inh 0.9, YopH inh -25, Mtb bLac sens 5, Mtb growth 3% and Arbovirus anti 14.
CCc1noc(C)c1C(=O)OCC(=O)N(CCOC)c1c(N)n(Cc2ccccc2)c(=O)[nH]c1=O was read as RecA splice inh 0.9 and Mtb bLac sens -2.
CCCOP(=O)(c1ccc(N(C)C)cc1)C(O)c1cc(OC)c(OC)c(OC)c1 (centres undefined) was read as RecA splice inh 5.2, YopH inh -41, Mtb bLac sens 0, Mtb growth -10% and Arbovirus anti -2.
`Cc1cc(NC(=O)COc2coc(CN3CCN(c4ccc(F)cc4)CC3)cc2=O)no1` gave RecA splice inh -1.3 and Mtb bLac sens 0.
`CCCNC(=O)c1ccc(Cn2cc(C(F)(F)F)ccc2=O)cc1` gave RecA splice inh 2.8, Mtb bLac sens -4, Mtb growth -3% and Arbovirus anti 3.
Screening O=C(CN1C(=O)c2ccccc2S1(=O)=O)c1ccccc1Cl returned RecA splice inh -0.5 and Mtb bLac sens -2.
Screening COc1ccc(/C=C/C(=O)Nc2cc(S(=O)(=O)N3CCOCC3)ccc2C)cc1OC returned RecA splice inh 0.5, Mtb bLac sens -2, Mtb growth -9% and Arbovirus anti -10.
`COc1ccc(/C=N/OC(=O)Nc2ccc(Cl)cc2)c(OC)c1` gave RecA splice inh 0.6, Mtb bLac sens -4 and Mtb growth 6%.
For O=C(CCC(=O)Nc1ccccc1)N/N=C/c1ccc2c(c1)OCO2 the results were RecA splice inh -1.8 and Mtb bLac sens -2.
For COc1ccccc1/C=C1\SC(=S)N(NS(=O)(=O)c2ccccc2)C1=O the results were RecA splice inh -3.5 and Mtb bLac sens -9.
`CCOc1ccccc1N(C)C(=O)c1cc2c(=O)n(CC)c3ccccc3c2s1` gave RecA splice inh 8.6, Mtb bLac sens 3 and Mtb growth 0%.
`Cc1ccc(NC(=O)CCCSc2nc3ccccc3[nH]2)cc1` gave RecA splice inh 1.8, YopH inh 14, Mtb bLac sens 3, Mtb growth 45% and Arbovirus anti 6.
Screening COc1ccccc1N1CCN(C(=O)c2ccc(-c3ccccc3)cc2)CC1 returned RecA splice inh 12 and Mtb bLac sens 20.
For COc1ccc(-c2c(C#N)c(N)nc3c2CCC3)cc1 the results were RecA splice inh -0.8, Mtb bLac sens 6, Mtb growth 9% and Arbovirus anti -4.
For O=C(COC(=O)c1ccc(O)cc1)NCCCc1ccccc1 the results were RecA splice inh -3.2, Mtb growth 1% and Arbovirus anti -5.
`Cc1cc(C(=O)CCC(=O)N2CCN(S(=O)(=O)c3cccs3)CC2)c(C)s1` gave RecA splice inh 0.7, YopH inh -48, Mtb bLac sens -8 and Arbovirus anti 1.
CCC(CC)C(=O)Nc1c2c(nn1-c1ccc(OC)cc1)CS(=O)C2 (centres undefined) was read as RecA splice inh 4.5, YopH inh -46, Mtb bLac sens -8, Mtb growth -2% and Arbovirus anti 5.
For CCCCS(=O)(=O)/C=C/[C@H]1[C@H](S(=O)(=O)CCCC)[C@H]2C=C[C@@H]1C2 the results were RecA splice inh -5.8, YopH inh 15, Mtb bLac sens -3, Mtb growth -2% and Arbovirus anti 2.
`CC1C=CCC2C(=O)N(c3cccc(C(=O)N4CCCCCC4)c3)C(=O)C12` (centres undefined) gave RecA splice inh -4.3, YopH inh -6, Mtb bLac sens -2, Mtb growth -1% and Arbovirus anti 1.
Screening COC(=O)CSc1cc(C)nc(SC)n1 returned RecA splice inh -0.3, YopH inh -7, Mtb bLac sens 0, Mtb growth -7% and Arbovirus anti 9.
C=CCN1C(=O)c2ccccc2Sc2ccc(C(=O)N3CCC4(CC3)OCCO4)cc21 was read as RecA splice inh -0.7, YopH inh -7, Mtb bLac sens -9, Mtb growth 4% and Arbovirus anti 5.
Cc1oc(-c2cccc(C(F)(F)F)c2)nc1CN1CCOCC1 was read as RecA splice inh 1.1, Mtb bLac sens 2, Mtb growth -4% and Arbovirus anti 11.
For CN(CC(=O)Nc1ncn[nH]1)S(=O)(=O)c1ccc(Br)cc1 the results were RecA splice inh 2.7 and Mtb bLac sens -12.
Cc1ccc(SC(C)C(=O)N2CCCC2)cc1 (centres undefined) was read as RecA splice inh 3.1, YopH inh 31, Mtb bLac sens -3, Mtb growth 0% and Arbovirus anti 2.
Screening CCn1c(=O)cc(SCC(=O)NCCCN2CCN(c3ccc(F)cc3)CC2)c2ccccc21 returned RecA splice inh -1.7, YopH inh -33, Mtb bLac sens -15, Mtb growth 4% and Arbovirus anti -18.
`Cc1c(C(=O)N(Cc2cccc(Br)c2)C2CCS(=O)(=O)C2)oc2ccc(F)cc12` (centres undefined) gave RecA splice inh 8.3 and Mtb bLac sens 4.

A draw from above in order of formula weight, lowest first:
Cc1ccc(SC(C)C(=O)N2CCCC2)cc1 (centres undefined) was read as RecA splice inh 3.1, YopH inh 31, Mtb bLac sens -3, Mtb growth 0% and Arbovirus anti 2.
For CN(CC(=O)Nc1ncn[nH]1)S(=O)(=O)c1ccc(Br)cc1 the results were RecA splice inh 2.7 and Mtb bLac sens -12.
C=CCN1C(=O)c2ccccc2Sc2ccc(C(=O)N3CCC4(CC3)OCCO4)cc21 was read as RecA splice inh -0.7, YopH inh -7, Mtb bLac sens -9, Mtb growth 4% and Arbovirus anti 5.

(more compounds)
For COc1ccc(NC(=O)NC(=O)c2cc(OCC(F)(F)F)ccc2OCC(F)(F)F)cc1 the results were RecA splice inh 0.4, Mtb bLac sens -2 and Mtb growth -4%.
Screening Cc1cc2c(cc(C(=O)O)n2C)s1 returned RecA splice inh -0.4, YopH inh 1, Mtb bLac sens 0, Mtb growth -4% and Arbovirus anti 0.
For Cc1ccc(N(CC(=O)NCc2ccc3c(c2)OCO3)C(=O)CCC(=O)Nc2ccccn2)cc1 the results were RecA splice inh -0.4 and Mtb bLac sens -1.
COc1cc(CCC(=O)OCC(=O)NCc2ccccc2)cc(OC)c1OC was read as RecA splice inh 1.5, Mtb bLac sens -6, Mtb growth 3% and Arbovirus anti 2.
`CC(C)(C)c1cccc(Cn2nnc3ccccc32)c1O` gave RecA splice inh 6.4 and Mtb bLac sens 8.
`O=C1CCC/C(=N\NC(=O)COc2ccc(Cl)cc2)C1` gave RecA splice inh -0.9, Mtb bLac sens 4, Mtb growth -3% and Arbovirus anti 0.
Cc1ccc(OC(=O)c2ccc(Br)o2)cc1 was read as RecA splice inh 3.1, YopH inh -23, Mtb bLac sens 100, Mtb growth 65µM* and Arbovirus anti 11.
Screening Cc1ccc2c(c1)cc(CN(Cc1cccnc1)C(=O)NCc1ccccc1)c1nnnn12 returned RecA splice inh 0.0, YopH inh -12, Mtb bLac sens 2, Mtb growth -3% and Arbovirus anti 0.
For Cc1ccc(OCCC(=O)OCC(=O)N2CCN(S(=O)(=O)c3ccc(Cl)cc3)CC2)cc1 the results were RecA splice inh 4.0 and Mtb bLac sens 6.
Screening CCOc1cc(CNc2ccc3c(c2)OCCO3)cc(Br)c1OCC(N)=O returned RecA splice inh 0.9, YopH inh -45, Mtb bLac sens -7, Mtb growth 0% and Arbovirus anti -16.
Screening COc1cccc2cc(C(=O)NCc3ccccc3Br)c(=O)oc12 returned RecA splice inh 3.0 and Mtb bLac sens inconclusive.
CC(OC(=O)Cc1n[nH]c(=O)c2ccccc12)C(=O)Nc1ccc(F)cc1 (centres undefined) was read as RecA splice inh 1.3 and Mtb bLac sens -4.

Random excerpt: 2 compounds from above
`Cc1cc(OCCN2CCCC2)ccc1[N+](=O)[O-]` gave RecA splice inh -0.3, YopH inh -2, Mtb bLac sens 1, Mtb growth 0% and Arbovirus anti -1.
Screening Cc1cc([N+](=O)[O-])ccc1NC1CCCC1 returned RecA splice inh 0.9, YopH inh -25, Mtb bLac sens 5, Mtb growth 3% and Arbovirus anti 14.

Later entries:
Screening CC(=O)c1cn(C)c(=O)n(C)c1=O returned RecA splice inh 1.1, YopH inh -32, Mtb bLac sens -3, Mtb growth 3% and Arbovirus anti 17.
For CN(C)NC(=S)NC1CC2CCC1C2 (centres undefined) the results were RecA splice inh 7.4, Mtb bLac sens 2 and Mtb growth 2%.
For CCOc1cc(NC(=S)NCCCN2CCOCC2)c(OCC)cc1NC(=O)CC(C)C the results were RecA splice inh -3.8, YopH inh -43, Mtb bLac sens 2, Mtb growth 1% and Arbovirus anti -5.
`COc1ccc(N/C=C\C(=O)c2ccc(Br)cc2)cc1OC` gave RecA splice inh -2.4, YopH inh -13, Mtb bLac sens 3, Mtb growth 3% and Arbovirus anti -6.
`OC(COc1ccc(OCC(O)CN2CCN(Cc3ccccc3)CC2)cc1)CN1CCN(Cc2ccccc2)CC1` (centres undefined) gave RecA splice inh -2.9 and Mtb bLac sens -6.
`Cc1onc(-c2ccccc2)c1C(=O)OCC(=O)Nc1cc(S(=O)(=O)N2CCOCC2)ccc1Cl` gave RecA splice inh 2.9, Mtb bLac sens -2, Mtb growth -4% and Arbovirus anti 2.
CCC(=O)NC(=Nc1nc2ccccc2s1)NC(=O)CC was read as RecA splice inh -2.2, YopH inh 2, Mtb bLac sens 6, Mtb growth 23% and Arbovirus anti -6.
`CN(C)C(=S)NC(C)(C)C` gave RecA splice inh 1.6, Mtb bLac sens -8 and Mtb growth -12%.
Screening CCOC(=O)C1(Cc2cccc(F)c2)CCN(C(=O)COC)CC1 returned RecA splice inh -2.2, Mtb bLac sens 3 and Mtb growth -2%.
For Cc1ccc2nc(NC(=O)C3CCN(S(=O)(=O)c4cc([N+](=O)[O-])ccc4Cl)CC3)sc2c1 the results were RecA splice inh 10, YopH inh -15, Mtb bLac sens 100, Mtb growth inconclusive and Arbovirus anti 19.
Cn1c(C(=O)OCC(=O)NCc2cccs2)cc2sccc21 was read as RecA splice inh 5.0, YopH inh -31, Mtb bLac sens 5, Mtb growth 6% and Arbovirus anti -11.
For C#CCn1cc(Cl)cc(C(=O)Nc2ccccc2)c1=O the results were RecA splice inh -0.6 and Mtb bLac sens -2.
`CC(=O)C1=C(C)Nc2ncnn2C1c1cccc(O)c1` (centres undefined) gave RecA splice inh -2.1 and Mtb bLac sens 3.
CCCC(c1nnnn1CCOC)N1CCN(C(=O)c2ccco2)CC1 (centres undefined) was read as RecA splice inh 0.8, YopH inh -52, Mtb bLac sens -9, Mtb growth -2% and Arbovirus anti 2.

Molecules above containing a furan ring, fused or not, in the order listed:
`Cc1c(C(=O)N(Cc2cccc(Br)c2)C2CCS(=O)(=O)C2)oc2ccc(F)cc12` (centres undefined) gave RecA splice inh 8.3 and Mtb bLac sens 4.
Cc1ccc(OC(=O)c2ccc(Br)o2)cc1 was read as RecA splice inh 3.1, YopH inh -23, Mtb bLac sens 100, Mtb growth 65µM* and Arbovirus anti 11.
CCCC(c1nnnn1CCOC)N1CCN(C(=O)c2ccco2)CC1 (centres undefined) was read as RecA splice inh 0.8, YopH inh -52, Mtb bLac sens -9, Mtb growth -2% and Arbovirus anti 2.
